2A Renilla – lowers the Renilla signal of an FMDV 2A StopGo reporter | HEK cells with a luciferase reporter of 2A StopGo recoding | Potency, µM (top dose mostly 57.5 µM), for inactives: top-dose signal change, negative = less light | AID 1745857 | hit rate 0.32% among 120,000; active means well fitted falling curve with a large enough effect; inconclusive means small, poorly fitted or top-dose-only effect; inactive means no such curve, though single readings can be large or run the other way; further: nearly all actives have a fitted effect of over 55% in size; overnight with compound
StopGo FLuc – FMDV 2A StopGo reporter, firefly signal | HEK cells with a luciferase reporter of 2A StopGo recoding | Potency, µM (titrated, usually from 57.5 µM), for the others: at the highest dose signal change, negative = less light | hit rate 0.23% among 120,000; active = well fitted falling curve with a large enough effect; inconclusive = small, poorly fitted or top-dose-only effect; inactive = no such curve, though single readings can be large or run the other way; further: nearly all actives have a fitted effect of over 60% in size; overnight with compound
The depositor's hits bear a star; & = joins results of further samples; [ ] = another dose, or the depositor's remark. On the % scale 0 is the no-effect control and ±100 the full control effect; potency means the concentration at half of the fitted maximal effect. An excerpt; the hit share may differ from the screen's.

`Cc1ccc(NC(=O)Cn2nc(C(F)(F)F)c3c2CCCC3)cc1` gave 2A Renilla 23% and StopGo FLuc 33%[activator].
Screening COCC(C)Nc1ncnc2c1c(-c1ccccc1)cn2-c1cccc(C(F)(F)F)c1 (centres undefined) returned 2A Renilla 0% and StopGo FLuc 9%.
N#CC1=C(N)Oc2cc(O)ccc2C1c1ccc(OCc2ccc(Br)cc2)cc1 (centres undefined) was read as 2A Renilla inconclusive and StopGo FLuc inconclusive.
Screening Cc1ccc(C(=O)Nc2ccccc2SCc2cc(=O)n3c(ncn3C(C)C)n2)cc1F returned 2A Renilla 15% and StopGo FLuc 10%.
`CCOc1ccc(C(=O)Nc2ccc(-c3nc4ccccc4s3)c(C)c2)cc1OCC` gave 2A Renilla -3% and StopGo FLuc 114%[activator].
COc1ccccc1CNC(=O)C1CCN(c2nc3ccc(C)cc3[nH]2)CC1 was read as 2A Renilla 4% and StopGo FLuc 35%[activator].
Cc1nn2c(-c3cccc(NC(=O)c4ccccc4)c3)nnc2c2ccccc12 was read as 2A Renilla 74%[activator] and StopGo FLuc 15%.
For CCCCc1nnc(NC(=O)COc2ccc3c(C)cc(=O)oc3c2)s1 the results were 2A Renilla -8% and StopGo FLuc -3%.
Screening CN(C)c1ccc(CNc2nc(-c3ccco3)nn2S(=O)(=O)c2ccc3ccccc3c2)cc1 returned 2A Renilla 97%[activator] and StopGo FLuc 22%.
Cn1c(=O)c2c(-c3cccc(Br)c3)n(CCO)cc2n(C)c1=O was read as 2A Renilla -11% and StopGo FLuc -8%.
For CCCSc1nc2c(c(=O)[nH]1)C(c1ccc(O)c(OCC)c1)CC(=O)N2 (centres undefined) the results were 2A Renilla 0% and StopGo FLuc 4%.
For COc1ccc(Br)c(C(=O)OC(C)C(=O)Nc2c(C)n(C)n(-c3ccccc3)c2=O)c1 (centres undefined) the results were 2A Renilla 49%[activator] and StopGo FLuc -6%.
For CN(C)S(=O)(=O)N(CC(=O)NCCSCc1c(F)cccc1Cl)c1ccccc1 the results were 2A Renilla 23% and StopGo FLuc -9%.
`Cc1ccc(S(=O)(=O)N2CCCc3cc(NC(=O)c4ccc(Cl)cc4)ccc32)cc1` gave 2A Renilla 11% and StopGo FLuc -6%.
For CCCCS(=O)(=O)NC(C)C(=O)O (centres undefined) the results were 2A Renilla 3% and StopGo FLuc -2%.
For Cc1ccc(CN(C)C(=O)c2cc3c(F)cccc3[nH]2)o1 the results were 2A Renilla 89%[activator] and StopGo FLuc 90%[activator].
`Cc1ccc(SC(C)C(=O)NC(C)(C#N)C(C)C)cc1C` (centres undefined) gave 2A Renilla 12% and StopGo FLuc -4%.
c1ccc(CN2CCN(Cc3c[nH]c4ccccc34)CC2)cc1 was read as 2A Renilla -27% and StopGo FLuc -18%.
Screening CCn1cc(S(=O)(=O)c2ccc(OC)cc2)c(=O)c2cc(F)c(N3CCCCCC3)cc21 returned 2A Renilla 34%[activator] and StopGo FLuc 1%.
`COc1cccc(CNC(=O)CCc2nnc3n(C)c(=O)c4sccc4n23)c1` gave 2A Renilla -20% and StopGo FLuc 20%.

The final 3 entries of the part above are carried over, then new ones follow.
c1ccc(CN2CCN(Cc3c[nH]c4ccccc34)CC2)cc1 was read as 2A Renilla -27% and StopGo FLuc -18%.
Screening CCn1cc(S(=O)(=O)c2ccc(OC)cc2)c(=O)c2cc(F)c(N3CCCCCC3)cc21 returned 2A Renilla 34%[activator] and StopGo FLuc 1%.
`COc1cccc(CNC(=O)CCc2nnc3n(C)c(=O)c4sccc4n23)c1` gave 2A Renilla -20% and StopGo FLuc 20%.
Screening COc1ccc(CCn2c(=O)c3cccnc3n(CC(=O)Nc3ccc(C)c(F)c3)c2=O)cc1OC returned 2A Renilla 5% and StopGo FLuc 2%.
Screening O=C(/C=C/c1cccc(Cl)c1)c1ccc(N2CCOCC2)cc1 returned 2A Renilla 24% and StopGo FLuc 63%[activator].
Screening COc1ccc(-c2nc(CNS(=O)(=O)c3ccc(Br)cc3)cs2)cc1 returned 2A Renilla 0% and StopGo FLuc 0%.
For COC(=O)[C@H]1C[C@@]2(C)c3ccccc3N(S(=O)(=O)c3ccccc3)[C@H]2N1 the results were 2A Renilla 8% and StopGo FLuc 9%.
Screening CCN1CCn2c(nc3cc(NC(=O)Cn4nc(C)c5ccccc5c4=O)ccc32)C1 returned 2A Renilla 24% and StopGo FLuc 8%.
Screening CCOC(=O)c1ccc(-n2c(-c3ccc(C)cc3)c(C)n3c4c(=O)n(C)c(=O)n(C)c4nc23)cc1 returned 2A Renilla -6% and StopGo FLuc -12%.
Screening CC(COc1ccc(C#N)cc1F)CN1CCC(C(O)(c2ccccc2)c2ccccc2)CC1 (centres undefined) returned 2A Renilla -4% and StopGo FLuc -9%.
For CCn1cc(C(=O)NCc2ccc(C)cc2)c(=O)c2cc(S(=O)(=O)N(C)C3CCCCC3)ccc21 the results were 2A Renilla 76%[activator] and StopGo FLuc -23%.
Screening O=C(CCl)c1ccc(Cl)cc1Cl returned 2A Renilla -9% and StopGo FLuc inconclusive.
`Cc1sc2c(c1C)c(=O)n(Cc1ccccc1)c(=O)n2CC(=O)Nc1cccc(Cl)c1` gave 2A Renilla 27% and StopGo FLuc 0%.
`CC(=O)Nc1ccc(-c2nc(-c3ccc4c(c3)CCC4)cs2)cc1` gave 2A Renilla 14% and StopGo FLuc 125%[activator].
`CCOC(=O)C1=C(CS(=O)(=O)c2ccc(Cl)cc2)NC(=O)NC1c1ccc(SC)cc1` (centres undefined) gave 2A Renilla -17% and StopGo FLuc -24%.
`CN1C(C(=O)c2ccccc2)=C(NC(=O)c2ccc(F)cc2)c2ccccc2S1(=O)=O` gave 2A Renilla 0% and StopGo FLuc 2%.
`COc1c(CC2CC(c3ccc(F)cc3)=NO2)cc2c(c1OC)OCO2` (centres undefined) gave 2A Renilla 5% and StopGo FLuc 0%.
For COc1ccc(CNC(=O)c2ccc(Cn3c(=O)c4cccn4c4cccnc43)cc2)c(OC)c1 the results were 2A Renilla -3% and StopGo FLuc -13%.
For O=C(Cn1cc(C(=O)c2ccccc2)c2ccccc21)Nc1ccc(Br)cc1 the results were 2A Renilla -2% and StopGo FLuc 33%[activator].
CN(C(=O)c1cnc(N2CCOCC2)c2ccccc12)c1ccccc1Cl was read as 2A Renilla -6% and StopGo FLuc -17%.
`Cc1cccc(-c2noc(-c3ccc(NCc4cccnc4)c([N+](=O)[O-])c3)n2)c1` gave 2A Renilla -5% and StopGo FLuc 59%[activator].
Cc1cccc(N2C(N)=C(C#N)C3(C(=O)N(Cc4cccc(F)c4)c4ccccc43)C3=C2COC3=O)c1 (centres undefined) was read as 2A Renilla 10% and StopGo FLuc -20%.
CC(C)Nc1ccc(-c2nc(-c3ccncc3)no2)cc1[N+](=O)[O-] was read as 2A Renilla 17% and StopGo FLuc 188%[activator].
`COc1ccc(C(=O)c2c(N)c(C#N)c3n2CCC3)cc1` gave 2A Renilla 13% and StopGo FLuc 5%.
For O=C(NCc1ccccc1Cl)C(=O)Nc1ccccc1 the results were 2A Renilla 21% and StopGo FLuc 202%[activator].
`COc1ccc2ncc3c(-c4ccc(C)c(C)c4)nn(CC(=O)NC4CCCCC4)c3c2c1` gave 2A Renilla -23% and StopGo FLuc -25%.
`CC(C)n1cnc2cc(NCc3ccccn3)ccc21` gave 2A Renilla 20% and StopGo FLuc 102%[activator].
`CCCc1cc(=O)oc2cc(OC(C)C(=O)Nc3cc(C)on3)ccc12` (centres undefined) gave 2A Renilla 1% and StopGo FLuc 5%.
For CCCc1cc(=O)oc2cc(OCC(=O)c3ccccc3)ccc12 the results were 2A Renilla 3% and StopGo FLuc 10%.
Screening CCc1ccc(C(NS(=O)(=O)c2cccs2)c2cccs2)cc1 (centres undefined) returned 2A Renilla inconclusive and StopGo FLuc inconclusive.
`C/C(=N/Nc1ccc(S(=O)(=O)Nc2ccc(Cl)cc2)cc1[N+](=O)[O-])c1ccco1` gave 2A Renilla 54%[activator] and StopGo FLuc inconclusive.
O=C1NC2(CCCCC2)NN1c1ccc(Br)cc1 was read as 2A Renilla 17% and StopGo FLuc 0%.
`COc1ccc(Cl)cc1S(=O)(=O)Nc1ccc2c(c1)n(C)c(=O)n2C` gave 2A Renilla 277%[activator] and StopGo FLuc 17%.
`CC(C)N(Cc1ccccc1)C(=O)COC(=O)c1ccc(F)cc1Cl` gave 2A Renilla -1% and StopGo FLuc 11%.
COC(=O)c1c(NC(C)=O)c2c3c(sc2n1Cc1cc(C)ccc1C)CCCC3 was read as 2A Renilla -2% and StopGo FLuc 39%[activator].
For COc1cccc(/C=C(\C#N)c2nc3ccccc3[nH]2)c1OC the results were 2A Renilla 16% and StopGo FLuc 206%[activator].
For O=C(Nc1ccc(CN2CCCC2)cc1)c1n[nH]c2ccccc12 the results were 2A Renilla 1% and StopGo FLuc 48%[activator].
`CCOc1ccc(NC(=O)CCc2c(C)nc3cc(-c4ccc(Cl)cc4)nn3c2C)cc1` gave 2A Renilla -1% and StopGo FLuc inconclusive.
For COc1ccc(Nc2nc3ccccc3nc2NS(=O)(=O)c2ccc(Cl)cc2)cc1OC the results were 2A Renilla 89%&46%[activator] and StopGo FLuc 53%&17%[activator].
`COc1ccc([C@@H]2CC(=O)C3=C(C2)Nc2[nH][nH]c(=O)c2[C@H]3c2ccccc2C(F)(F)F)cc1OC` gave 2A Renilla 6% and StopGo FLuc 10%.
`CCOC(=O)c1c(NC(=O)/C=C/c2ccc(OCC)cc2)sc2c1CCCC2` gave 2A Renilla -4% and StopGo FLuc -6%.
`O=C(N/N=C/c1ccc(OCCCOc2ccccc2Cl)cc1)c1cccc(Cl)c1` gave 2A Renilla 14% and StopGo FLuc 87%[activator].
For CCOC(=O)Cn1cnc2onc(-c3ccc(F)cc3)c2c1=O the results were 2A Renilla -2% and StopGo FLuc -10%.

In the list so far, these contain a thiophene ring, fused or not.
`COc1cccc(CNC(=O)CCc2nnc3n(C)c(=O)c4sccc4n23)c1` gave 2A Renilla -20% and StopGo FLuc 20%.
`Cc1sc2c(c1C)c(=O)n(Cc1ccccc1)c(=O)n2CC(=O)Nc1cccc(Cl)c1` gave 2A Renilla 27% and StopGo FLuc 0%.
Screening CCc1ccc(C(NS(=O)(=O)c2cccs2)c2cccs2)cc1 (centres undefined) returned 2A Renilla inconclusive and StopGo FLuc inconclusive.
COC(=O)c1c(NC(C)=O)c2c3c(sc2n1Cc1cc(C)ccc1C)CCCC3 was read as 2A Renilla -2% and StopGo FLuc 39%[activator].
`CCOC(=O)c1c(NC(=O)/C=C/c2ccc(OCC)cc2)sc2c1CCCC2` gave 2A Renilla -4% and StopGo FLuc -6%.

Later entries
For O=c1oc2cc(O)ccc2cc1-c1nnc(Nc2ccc(Cl)cc2Cl)s1 the results were 2A Renilla -6% and StopGo FLuc 0%.
CC(C)c1ccc2oc(-c3ccc(N)cc3O)nc2c1 was read as 2A Renilla -9% and StopGo FLuc 73%[activator].
For COc1ccc(CCNC(=O)CCCn2c(=O)c3ccccc3n(CC(=O)Nc3ccccc3C)c2=O)cc1OC the results were 2A Renilla -8% and StopGo FLuc -8%.
Screening CC(C)N1CCC(CNC(=O)c2cc3ccccc3n2C)C1 (centres undefined) returned 2A Renilla -11% and StopGo FLuc -6%.
CC1=C(C(=O)Nc2ccccc2C)C(c2cccnc2)n2nc(SCc3ccccc3)nc2N1 (centres undefined) was read as 2A Renilla 185%[activator] and StopGo FLuc 149%[activator].
For COC(=O)c1ccc(C(=O)NCCc2ccccc2)cc1 the results were 2A Renilla -4%[1.06 µM] and StopGo FLuc 66%[activator].
CC(C)c1ccccc1NC(=O)/C=C/c1c(F)cccc1Cl was read as 2A Renilla 16% and StopGo FLuc 0%.
`COC(=O)c1ccc(OC(=O)c2cc(-c3cccs3)nc3ccccc23)cc1` gave 2A Renilla 2% and StopGo FLuc 5%.
For Nc1cccc(C(=O)/C=C/c2ccc(F)cc2)c1 the results were 2A Renilla 30% and StopGo FLuc 125%[activator].
Screening O=C1C(=O)N(C2CCCC2)C(=O)N1Cc1ncc(-c2ccc(Cl)cc2)o1 returned 2A Renilla 0% and StopGo FLuc 4%.
For COc1ccc(CNCC(=O)O)cc1 the results were 2A Renilla 8% and StopGo FLuc 1%.
Screening COCCn1cnnc1SCCOc1ccc(F)cc1 returned 2A Renilla -8% and StopGo FLuc 0%.
Screening COc1ccccc1NC(=O)c1cc2c(=O)n3ccccc3nc2n1Cc1ccccc1 returned 2A Renilla -5% and StopGo FLuc 18%.
Screening CCN1C(=O)c2ccccc2S(=O)c2ccc(C(=O)NCc3ccc(F)cc3)cc21 (centres undefined) returned 2A Renilla -7% and StopGo FLuc -11%.
`COc1ccc(/C(C#N)=C/c2ccc(OCCOc3ccccc3)cc2)cc1OC` gave 2A Renilla 20% and StopGo FLuc 0%.
COc1cc(Cl)c(NC(=O)C(NS(=O)(=O)c2cccs2)C(C)C)c(OC)c1 (centres undefined) was read as 2A Renilla -4% and StopGo FLuc 48%[activator].
Screening COc1ccc(C(CC(=O)Nc2ccc(F)c(Cl)c2)N2Cc3ccccc3C2=O)cc1OC (centres undefined) returned 2A Renilla 68%[activator] and StopGo FLuc 0%.
C=CCn1c(-n2nc(C)cc2C)nc2c1c(=O)n(C/C=C/C)c(=O)n2C was read as 2A Renilla 3% and StopGo FLuc -8%.
Screening O=C(CN1CCN(c2ccccc2O)CC1)N1N=C(c2cc3ccccc3o2)CC1c1ccco1 (centres undefined) returned 2A Renilla -19% and StopGo FLuc 38%[activator].
CN(C)C(=O)Cc1cccc(C(F)(F)F)c1 was read as 2A Renilla 13% and StopGo FLuc -2%.

Screening results: PubChem, National Center for Advancing Translational Sciences (NCATS)
